Source: PubChem BioAssay (Broad Institute)
MLL AF4-AF9 inh – MLL-AF4/AF9 protein interaction inhibition | AlphaScreen, biotin-AF4 peptide binding to FLAG-AF9 | hit rate 0.47% among 350,000 | AID 651704 | inhibition, % at 10 µM | P42568;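 active means every replicate reaching a set inhibition limit, whatever the replicate mean, cut at about 25% in these data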;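 further: 0% = plate neutral control median and 100% = total signal loss; the record names both 10 and 1 µM as test concentration; the first replicate is given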
Target sequence (P42568 whole entry, looked up): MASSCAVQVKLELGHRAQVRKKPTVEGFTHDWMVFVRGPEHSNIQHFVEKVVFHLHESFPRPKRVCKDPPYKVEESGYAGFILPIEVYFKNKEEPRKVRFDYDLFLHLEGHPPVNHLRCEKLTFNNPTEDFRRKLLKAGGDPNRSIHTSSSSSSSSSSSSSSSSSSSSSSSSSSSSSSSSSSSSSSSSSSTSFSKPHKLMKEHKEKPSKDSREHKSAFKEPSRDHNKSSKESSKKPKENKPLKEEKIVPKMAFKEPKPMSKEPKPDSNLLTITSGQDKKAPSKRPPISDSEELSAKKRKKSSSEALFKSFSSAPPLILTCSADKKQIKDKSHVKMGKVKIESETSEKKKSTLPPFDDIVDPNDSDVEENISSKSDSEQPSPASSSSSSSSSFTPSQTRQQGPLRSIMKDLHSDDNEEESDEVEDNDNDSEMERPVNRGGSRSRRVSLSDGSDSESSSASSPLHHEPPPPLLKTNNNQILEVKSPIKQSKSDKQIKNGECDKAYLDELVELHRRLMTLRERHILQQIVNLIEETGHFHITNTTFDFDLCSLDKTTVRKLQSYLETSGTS
FGF22 binding – shifts melting point of recombinant human FGF22; recombinant FGF22 thermal shift, SYPRO orange fluorescence; percent of sucrose octasulfate shift, DMSO zero; calls only at 9.99 µM; hit rate 1.5% among 340,000; AID 651658;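 active means melting point raised past a set limit in the mean and every replicate; three in four hits are not shown here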
Target sequence (Q9HCT0 whole entry, looked up): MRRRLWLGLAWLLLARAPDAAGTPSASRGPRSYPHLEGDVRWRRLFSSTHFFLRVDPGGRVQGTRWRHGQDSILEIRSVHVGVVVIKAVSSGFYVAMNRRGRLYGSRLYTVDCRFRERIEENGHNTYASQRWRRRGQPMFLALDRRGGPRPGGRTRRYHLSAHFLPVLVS
Starred values were filed as active, the others as inactive; i = inactive; / = not tested or not shown. An excerpt (hit frequency here may not be typical).

Start of the data: the first 2 compounds, ahead of the listing:
SMILES	MLL AF4-AF9 inh	FGF22 binding
C[C@@H]1CN([C@H](C)CO)C(=O)c2cccc(NC(=O)Nc3ccc4c(c3)OCO4)c2O[C@@H]1CN(C)C	0.0	i
O=S(=O)(c1ccc(F)cc1)N1CCCCN2[C@H](CO)[C@H](c3ccc(-c4ccccc4F)cc3)[C@H]2C1	-1.8	i

The list itself (from the top)
SMILES	MLL AF4-AF9 inh	FGF22 binding
C[C@@H]1CN([C@H](C)CO)C(=O)c2cccc(NC(=O)Nc3ccc4c(c3)OCO4)c2O[C@@H]1CN(C)C	0.0	i
O=S(=O)(c1ccc(F)cc1)N1CCCCN2[C@H](CO)[C@H](c3ccc(-c4ccccc4F)cc3)[C@H]2C1	-1.8	i
C[C@H](CO)N1C[C@H](C)[C@@H](CN(C)C(=O)Nc2ccc(F)cc2)Oc2ccc(NC(=O)NC3CCCCC3)cc2C1=O	2.0	i
C[C@@H]1CN([C@@H](C)CO)C(=O)c2cc(C#Cc3ccccc3F)cnc2O[C@@H]1CN(C)C(=O)C1CC1	-0.2	i
CN1[C@@H]2Cn3c(ccc(-c4cccc(F)c4)c3=O)[C@H]1[C@@H](C(=O)N1CCCCC1)[C@@H]2CO	-1.6	i
CC(C)NC(=O)Nc1ccc2c(c1)CC(=O)N([C@@H](C)CO)C[C@H](C)[C@@H](CN(C)Cc1ccc(C(=O)Nc3ccccc3N)cc1)O2	2.1	i
C[C@H]1CCCCO[C@H](CN(C)C(=O)Nc2ccc(F)cc2)[C@@H](C)CN([C@@H](C)CO)C(=O)c2cc(NS(=O)(=O)c3cccs3)ccc2O1	-13	i
C[C@H]1CN([C@@H](C)CO)S(=O)(=O)c2ccc(-c3ccc(C(=O)N(C)C)cc3)cc2O[C@@H]1CN(C)Cc1ccccc1C(=O)O	1.2	i
CCCN1C[C@H](C)[C@H](OC)CN(C)C(=O)c2cc(NC(=O)NC3CCCCC3)ccc2OC[C@@H]1C	-0.8	i
COc1ccc(NC(=O)N(C)C[C@@H]2Oc3ccc(NC(=O)C4CC4)cc3CC(=O)N([C@@H](C)CO)C[C@H]2C)cc1	-1.3	i
CCC(=O)N(C)C[C@@H]1Oc2ncc(C#CCc3ccccc3)cc2C(=O)N([C@H](C)CO)C[C@H]1C	-2.4	i
COc1cccc(-c2ccc([C@H]3[C@H]4CN(S(=O)(=O)c5cn(C)cn5)CCCCN4[C@H]3CO)cc2)c1	-6.3	i
O=C(CC(F)(F)F)N1C[C@H]2[C@@H](c3ccccc31)[C@H](CO)N2CC1CCCCC1	-17	i
C[C@H](CO)N1C[C@H](C)[C@H](CN(C)C(=O)c2ccccc2F)Oc2ncc(C#Cc3ccncc3)cc2C1=O	-6.3	i
CCNC(=O)C[C@@H]1CC[C@H](NS(=O)(=O)c2ccc(F)cc2)[C@@H](CO)O1	-0.5	i
COCC#Cc1cnc2c(c1)C(=O)N([C@@H](C)CO)C[C@@H](C)[C@H](CN(C)C(=O)Nc1cccc(F)c1)O2	1.5	i
O=C(c1ccc2c(c1)OCO2)N1CCCCN2[C@H](CO)[C@@H](c3ccc(-c4ccccc4)cc3)[C@H]2C1	6.4	i
CC(C)NC(=O)N(C)C[C@@H]1OCCCC[C@H](C)Oc2ccc(NS(=O)(=O)c3ccccc3)cc2C(=O)N([C@@H](C)CO)C[C@@H]1C	0.7	i
Cc1noc(C)c1NC(=O)Nc1cccc2c1O[C@H](CN(C)Cc1ccc(C(=O)Nc3ccccc3N)cc1)[C@@H](C)CN([C@H](C)CO)C2=O	-5.0	i
CO[C@H]1CN(C)C(=O)c2cc(NS(=O)(=O)c3ccccc3Cl)ccc2OC[C@H](C)NC[C@@H]1C	-4.1	i
CCCN1C[C@@H](C)[C@H](OC)CN(C)C(=O)c2cc(NC(=O)c3cnccn3)ccc2OC[C@H]1C	0.8	i
COC(=O)C[C@@H]1CC[C@@H]2[C@H](COc3ccc(NC(=O)c4cnccn4)cc3C(=O)N2C)O1	-2.0	i
C[C@@H]1CN([C@@H](C)CO)C(=O)c2cc(NS(=O)(=O)c3ccccc3)ccc2O[C@@H](C)CCCCO[C@H]1CN(C)S(=O)(=O)c1ccc(F)cc1	-2.4	i
C[C@H]1CN([C@@H](C)CO)C(=O)Cc2cc(NS(=O)(=O)c3ccc(F)cc3)ccc2O[C@H]1CN(C)S(=O)(=O)c1ccccc1	-2.1	i
C[C@@H]1CN([C@@H](C)CO)C(=O)c2cccc(NS(=O)(=O)c3ccc(F)cc3)c2O[C@@H]1CN(C)S(=O)(=O)c1cccs1	0.6	i
O=C(N[C@H]1CC[C@@H](CCNC(=O)C2CC2)O[C@@H]1CO)c1ccccn1	-0.8	i
C[C@@H]1CN([C@@H](C)CO)C(=O)c2cccc(NS(=O)(=O)c3cn(C)cn3)c2O[C@H]1CN(C)Cc1ccc2c(c1)OCO2	-1.1	i
CC(C)NC(=O)N(C)C[C@H]1OCCCC[C@@H](C)Oc2ccc(NC(=O)Nc3cccc4ccccc34)cc2C(=O)N([C@H](C)CO)C[C@@H]1C	-8.6	i
COc1cccc(C(=O)Nc2ccc3c(c2)C(=O)N(C)C[C@@H](OC)[C@H](C)CN(C(C)=O)[C@@H](C)CO3)c1	0.2	i
COc1ccc(CN(C)C[C@H]2Oc3ccc(NC(=O)Cn4cnnn4)cc3C(=O)N([C@@H](C)CO)C[C@H]2C)cc1	2.0	i
O=C(Nc1ccccc1F)N[C@H]1CC[C@@H](CCNC(=O)C2CCCC2)O[C@H]1CO	-0.4	i
C[C@H]1CN([C@@H](C)CO)C(=O)c2cc(C#Cc3ccccc3)cnc2O[C@@H]1CN(C)C(=O)c1ccccc1	-0.6	i
O=c1[nH]c(-c2ccccc2)cn1C1CCN(Cc2ccc(-c3nc4ccc(Br)cc4nc3-c3ccccc3)cc2)CC1	-12	/
NCC[C@@H]1CC[C@@H](NS(=O)(=O)Cc2ccccc2)[C@H](CO)O1	-0.6	i
COc1cccc(S(=O)(=O)N2CCCCN3[C@H](C2)[C@@H](c2ccc(C4=CCCCC4)cc2)[C@@H]3CO)c1	-5.1	i
C[C@@H]1CN([C@H](C)CO)C(=O)c2cc(C#CC3(O)CCCC3)cnc2O[C@@H]1CN(C)CC1CC1	-3.8	i
CC=Cc1ccc2n(c1=O)C[C@@H]1[C@@H](CO)[C@H](C(=O)NCc3ccccn3)N(CC3CC3)[C@H]21 (mixture of isomers)	-4.4	i
Cc1noc(C)c1S(=O)(=O)N(C)C[C@@H]1Oc2ccc(NC(=O)NC(C)C)cc2CC(=O)N([C@@H](C)CO)C[C@@H]1C	0.8	i
C[C@H]1CN([C@@H](C)CO)C(=O)c2cccc(NC(=O)NC3CCCCC3)c2O[C@@H]1CN(C)CC1CC1	1.6	i
CCS(=O)(=O)N[C@H]1C=C[C@@H](CC(=O)N2CCCCC2)O[C@H]1CO	-3.1	i
C[C@H](CO)N1C[C@H](C)[C@@H](CN(C)Cc2ccc(C(F)(F)F)cc2)Oc2ccc(NC(=O)Nc3ccccc3)cc2C1=O	-0.7	i
C[C@@H]1CN([C@H](C)CO)C(=O)c2cc(/C=C/c3ccccc3)cnc2O[C@H]1CN(C)Cc1ccncc1	7.4	i
CO[C@@H]1CN(C)C(=O)c2ccc(NC(=O)NC(C)C)cc2OC[C@@H](C)NC[C@@H]1C	-3.5	i
CC1C=NC(S(=O)(=O)N2CC[C@@H]3[C@H](CO)N(C)c4ccc(C5=CCCCC5)cc4[C@@H]32)=N1 (some centres not stated)	-1.5	i
OC[C@@H]1[C@H](c2ccc(-c3ccccc3F)cc2)[C@@H]2CN(Cc3cncnc3)CCCCN12	-6.1	i
COc1ccc(NC(=O)Nc2cccc3c2O[C@@H](CN(C)C(=O)Nc2ccc(F)cc2)[C@@H](C)CN([C@H](C)CO)C3=O)cc1	2.2	i
COc1ccccc1CCn1cnc(-c2cccc(Br)c2)c1CC(C)C	3.1	i
O=C(C1CCCCC1)N1[C@@H]2CN(S(=O)(=O)c3ccccc3)c3ccccc3[C@@H]2[C@@H]1CO	-0.3	i
CN1c2ccc(-c3ccc(F)cc3)cc2[C@@H]2[C@@H](CCN2C(=O)Nc2cc(F)ccc2F)[C@@H]1CO	1.5	i
O=C(c1cccc(F)c1)N1C[C@H]2[C@@H](c3ccccc31)[C@@H](CO)N2Cc1cocn1	-2.3	i
C[C@H]1CN([C@@H](C)CO)S(=O)(=O)c2ccc(C#CC3CCCC3)cc2O[C@H]1CN(C)S(C)(=O)=O	5.7	i
C[C@H]1CN([C@@H](C)CO)S(=O)(=O)c2ccc(-c3cncnc3)cc2O[C@@H]1CN(C)C(=O)Cc1cccnc1	-8.4	i
CCC(=O)N(C)C[C@H]1Oc2cc(-c3ccc(C#N)cc3)ccc2S(=O)(=O)N([C@@H](C)CO)C[C@@H]1C	-0.8	i
COc1ccc(CN(C)C[C@@H]2OCCCC[C@@H](C)Oc3ccc(NC(=O)CCCN(C)C)cc3C(=O)N([C@H](C)CO)C[C@H]2C)cc1	-1.2	i
Cc1noc(C)c1NC(=O)Nc1ccc2c(c1)C(=O)N([C@@H](C)CO)C[C@@H](C)[C@H](CN(C)C(=O)c1ccccc1)OCCCC[C@H](C)O2	-6.1	i
Cc1noc(C)c1NC(=O)Nc1ccc2c(c1)C(=O)N([C@H](C)CO)C[C@@H](C)[C@H](CN(C)S(=O)(=O)c1c(C)noc1C)OCCCC[C@@H](C)O2	2.1	i
C[C@H]1CN([C@@H](C)CO)C(=O)Cc2cc(NC(=O)c3ccncc3)ccc2O[C@@H]1CN(C)CC1CCCCC1	1.4	i
CCC(=O)Nc1ccc2c(c1)OC[C@H](C)N(C(=O)Cc1ccccn1)C[C@@H](C)[C@H](OC)CN(C)C2=O	-1.6	i
O=C(NC1CCCC1)N[C@H]1C=C[C@@H](CC(=O)N2CCOCC2)O[C@@H]1CO	-0.5	i
CCCNC(=O)C[C@H]1CC[C@@H]2[C@H](COc3ccc(NC(=O)Nc4cccc(C)c4)cc3C(=O)N2C)O1	1.7	i

Some values from above.
`CO[C@@H]1CN(C)C(=O)c2ccc(NC(=O)NC(C)C)cc2OC[C@@H](C)NC[C@@H]1C` | MLL AF4-AF9 inh: -3.5
`C[C@H](CO)N1C[C@H](C)[C@@H](CN(C)Cc2ccc(C(F)(F)F)cc2)Oc2ccc(NC(=O)Nc3ccccc3)cc2C1=O` | MLL AF4-AF9 inh: -0.7
`Cc1noc(C)c1NC(=O)Nc1ccc2c(c1)C(=O)N([C@H](C)CO)C[C@@H](C)[C@H](CN(C)S(=O)(=O)c1c(C)noc1C)OCCCC[C@@H](C)O2` | MLL AF4-AF9 inh: 2.1
`CCCNC(=O)C[C@H]1CC[C@@H]2[C@H](COc3ccc(NC(=O)Nc4cccc(C)c4)cc3C(=O)N2C)O1` | MLL AF4-AF9 inh: 1.7
`OC[C@@H]1[C@H](c2ccc(-c3ccccc3F)cc2)[C@@H]2CN(Cc3cncnc3)CCCCN12` | MLL AF4-AF9 inh: -6.1

(more compounds)
SMILES	MLL AF4-AF9 inh	FGF22 binding
C[C@H]1CN([C@@H](C)CO)C(=O)Cc2cc(NC(=O)Nc3cccc4ccccc34)ccc2O[C@@H]1CN(C)C(=O)Nc1ccc(F)cc1	2.4	i
CC=Cc1ccc2n(c1=O)C[C@H]1[C@H](CO)[C@@H](C(=O)NCc3ccc4c(c3)OCO4)[C@@H]2N1C(=O)CC (mixture of isomers)	-2.6	i
COCC(=O)N(C)C[C@H]1Oc2cc(C#CCN(C)C)ccc2S(=O)(=O)N([C@@H](C)CO)C[C@H]1C	-4.0	i
C[C@@H]1CN([C@@H](C)CO)S(=O)(=O)c2ccc(-c3ccccc3F)cc2O[C@@H]1CN(C)CC1CC1	7.2	i
COc1ccc2c3c([nH]c2c1)[C@H](CO)N(C(=O)c1ccncc1)CC31CN(C(=O)c2ccncc2)C1	-0.8	i
COc1ccccc1C(=O)Nc1ccc2c(c1)C(=O)N(C)C[C@H](OC)[C@@H](C)CN(C)[C@H](C)CO2	-1.5	i
CC(C)NC(=O)N(C)C[C@H]1Oc2c(NC(=O)C3CC3)cccc2C(=O)N([C@@H](C)CO)C[C@@H]1C	-2.0	i
CN(C)CC(=O)N[C@@H]1C=C[C@H](CC(=O)NCc2ccccc2F)O[C@H]1CO	-2.4	i
C[C@@H]1CN([C@@H](C)CO)C(=O)c2cccc(NC(=O)Nc3ccc(F)cc3)c2O[C@H]1CN(C)C(=O)Nc1cccc2ccccc12	1.1	i
CN(C)C(=O)C[C@H]1CC[C@@H]2[C@H](COC[C@H](O)CN2Cc2nccs2)O1	-6.4	i
COc1ccc(NC(=O)N(C)C[C@@H]2Oc3ccc(NC(=O)NC4CCCCC4)cc3C(=O)N([C@@H](C)CO)C[C@@H]2C)cc1	-6.3	i
Cn1cnc(S(=O)(=O)N2C[C@@H](O)COC[C@@H]3O[C@H](CC(=O)N4CCN(c5ccccc5)CC4)CC[C@H]32)c1	-4.3	i
C[C@@H]1CN([C@@H](C)CO)C(=O)c2cc(NC(=O)CCCCCC(=O)Nc3ccccc3N)ccc2O[C@@H]1CN(C)S(C)(=O)=O	-9.5	i
CCCNC(=O)C[C@H]1CC[C@@H]2[C@H](COC[C@@H](O)CN2Cc2cccc(F)c2)O1	0.9	i
C/C=C/c1ccc2c(c1)O[C@@H](CN(C)CCC)[C@@H](C)CN([C@@H](C)CO)S2(=O)=O	4.2	i
C[C@H]1CN([C@@H](C)CO)C(=O)c2ccccc2-c2ccccc2CO[C@H]1CN(C)CC1CC1	-5.7	i
C[C@@H]1CCCCO[C@@H](CN(C)S(=O)(=O)c2ccccc2)[C@@H](C)CN([C@H](C)CO)C(=O)c2cc(NS(=O)(=O)c3ccc(Cl)cc3)ccc2O1	-5.9	i
